Menin MLL FP FL: menin-MLL binding inhibition, fluorescein peptide | Fluorescence polarization, fluorescein-MLL peptide displacement from menin | 290,000 tested, under 10 active | FP activity change, % at 61.4 µM; inconclusive = falling polarisation curve, or a change in total fluorescence; inactive = total fluorescence flat and polarisation flat or rising; no compound was filed as active; the % refers to the polarisation; negative = inhibition;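 note: % of control where 0% means no effect; inhibitors lower the polarisation; unlabelled MLL peptide was the positive control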
gsp agonist: activates gsp, the McCune-Albright syndrome mutation | gsp mutant cells, cAMP HTRF, 30 min; control for the full effect not named in the record | 0.13% of 340,000 active | Potency, µM (titrated, usually from 76.9 µM), for the others: top-dose activation (cAMP increase), usual class: activators; active = well fitted activation curve with a large enough effect; inconclusive = small, poorly fitted or top-dose-only effect, or another doubt; inactive = no such curve, though single readings can be large or run the other way; cell line not stated here;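 note: phosphodiesterase inhibitor Ro 20-1724 added with compounds to block cAMP breakdown; potency is the fitted concentration of half-maximal effect; nearly all actives have a fitted effect of over 60% in size; about a fifth of the inactives were tested at one dose only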
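Cells stably selected in G418 were plated at 2000/well, grown 16-24 hr, then given compounds in DMSO with the PDE inhibitor […] (300 uM solution added) for 30 min at 37C; cAMP was read by HTRF.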
PINK1 modulator: PINK1 expression modulation | PINK1 immunofluorescence, high-content cytometry, 24 h | Potency, µM (top dose mostly 76.6 µM), without a hit: top-dose activation (PINK1 increase), hits mostly activators | 0.2% of 410,000 active; active = well fitted activation curve with a large enough effect; inconclusive = small, poorly fitted or top-dose-only effect; inactive = flat fitted curve, though single readings scatter; cell line not stated here;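 note: potency is the fitted concentration of half-maximal effect; % of control where 0% means no effect; nearly all actives have a fitted effect of over 65% in size; a mitochondrial uncoupler was the plate control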
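Stable cell line, 250 cells/well, 12 h attachment; compounds pinned at 5 concentrations, 24 h; CCCP control. Fixed with nuclear dye, primary antibodies 12 h at 10 degrees C, secondary plus cell stain; laser-scanning cytometer read.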
D2 ag: activates the human D2 dopamine receptor; 0.084% of 360,000 active; activation, % (test concentration not listed); DiscoveRx PathHunter D2 beta-arrestin, luminescence, 90 min; 100% = 57 uM dopamine signal; P14416; in the data active = activation above about 40%; inconclusive = about 15% to 40%; inactive = below about 15%; note: compound concentration not given in the record; the text of the record calls up to 30% inactive
Target sequence (P14416 whole entry, looked up): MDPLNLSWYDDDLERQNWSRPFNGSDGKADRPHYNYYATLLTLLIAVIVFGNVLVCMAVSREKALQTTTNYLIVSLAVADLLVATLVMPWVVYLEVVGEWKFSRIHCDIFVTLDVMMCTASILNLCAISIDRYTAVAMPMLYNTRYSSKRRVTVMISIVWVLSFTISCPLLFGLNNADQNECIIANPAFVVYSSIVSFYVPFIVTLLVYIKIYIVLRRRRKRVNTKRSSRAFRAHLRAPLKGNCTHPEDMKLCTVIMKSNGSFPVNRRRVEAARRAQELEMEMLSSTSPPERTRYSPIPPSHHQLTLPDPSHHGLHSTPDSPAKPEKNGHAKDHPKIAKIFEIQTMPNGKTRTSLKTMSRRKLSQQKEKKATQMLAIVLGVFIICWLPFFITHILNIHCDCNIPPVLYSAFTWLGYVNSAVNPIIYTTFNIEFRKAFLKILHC
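Agonist mode: compounds alone added to overnight-plated D2 PathHunter cells for 90 min at 37 C, with 57 uM final dopamine (EC100) defining full response. Beta-arrestin recruitment detected by chemiluminescent reagent, read after 1 h at ambient temperature.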
Sfp PPTase inh: inhibitors of Bacillus subtilis Sfp phosphopantetheinyl transferase. Q9F4F7. Biochemical Sfp PPTase activity, qHTS. Potency, µM, inactives show max response, negative = inhibition, usual class: inhibitors. 3.5% of 310,000 active. AID 1490; active = well fitted inhibition curve with a large enough effect; inconclusive = small, poorly fitted or top-dose-only effect, or another doubt; inactive = no such curve, though single readings can be large or run the other way;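 note: the enzyme is Sfp with the accession as filed and its product quenches rhodamine fluorescence; potency is the fitted concentration of half-maximal effect; 0% = enzyme reaction without inhibitor and -100% = no enzyme wells; top concentration of the series not given in the record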
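With Hepes-Na pH 7.6 buffer containing 10 mM MgCl2, Sfp (15 nM) modified BHQ-2-YbbR (12.5 uM) using rhodamine-CoA (5 uM). Two reads 30 minutes apart at 525/598 nm yielded each well's rate.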
gsp antag: antagonizes gsp, the McCune-Albright syndrome mutation | Potency, µM (titrated, usually from 76.9 µM), for the others: top-dose activity change, negative = inhibition, actives largely listed as inhibitors | AID 624288 | gsp-mutant cells, cAMP HTRF, 30 min; control for the full effect not named in the record | 0.4% of 340,000 active; active = falling curve of any shape with a large fitted effect; inconclusive = falling curve, mostly with a smaller effect; inactive = flat or rising curve; cell line not stated here;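 note: intracellular cAMP measured with PDE inhibitor Ro 20-1724 present during compound exposure; potency is the fitted concentration of half-maximal effect; % is set by controls: 0 for no effect and ±100 for the full control effect; nearly all actives have a fitted effect of over 65% in size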
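HTRF cAMP read-out (cAMP-d2 plus anti-cAMP antibody-K in lysis buffer, 30 min RT). Before lysis, cells are exposed to compounds with […] for 30 min at 37C in DPBS containing Ca/Mg, BSA and Tween 20.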
ClpP mod: qHTS Assay for Activators of ClpP. ATP-dependent Clp protease proteolytic subunit (Bacillus subtilis (strain 168)), P80244. purified B. subtilis ClpP, FRET peptide cleavage, 20 min. Potency, µM (doses to about 57.5 µM), without a hit: at the top dose activity change, negative = active. 1.9% of 340,000 active. AID 651965, 2013; active = well fitted falling curve with a large enough effect; inconclusive = small, poorly fitted or top-dose-only effect; inactive = no such curve, though single readings can be large or run the other way; note: potency is the fitted concentration of half-maximal effect; the source files actives as falling curves though it sought activators and does not explain the sign; nearly all actives have a fitted effect of over 65% in size; many hits overshoot -100%
Target sequence (P80244 whole entry, looked up): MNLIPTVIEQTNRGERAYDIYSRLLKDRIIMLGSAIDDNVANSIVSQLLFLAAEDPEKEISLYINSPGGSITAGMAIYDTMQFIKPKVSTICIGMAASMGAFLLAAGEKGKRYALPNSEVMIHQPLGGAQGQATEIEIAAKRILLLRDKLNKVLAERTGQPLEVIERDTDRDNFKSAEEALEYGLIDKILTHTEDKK
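Buffer: 100 mM Tris/HCl pH8, 100 mM KCl, 0.05% low protease BSA, 2.5% glycerol, 0.01% Tween-20. ClpP 10 microg/mL final; 20 min RT; delta FRET normalized to ADEP and DMSO controls.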
* marks the source's active call; other numbers are inactive results; ? = inconclusive; nt = no result given; [ ] = dose if it differs, or a comment.

SMILES	Menin MLL FP FL	gsp agonist	PINK1 modulator	D2 ag	Sfp PPTase inh	gsp antag	ClpP mod
COc1ccccc1N1CCN(C(=O)CCc2ccccc2)CC1	0.7	-74.5%[inhibitor]	-0.3%	-2.5	7.0%	-0.5%	nt
CC1(C(=O)NS(=O)(=O)c2ccccc2Cl)CCN1C(=O)Cc1ccccc1 (stereo not drawn)	nt	nt	0.5%	-3.4	nt	nt	-0.9%
CCN(CC)CCNC(=O)C12CC3CC(CC(C3)C1)C2	1.7	2.9%	0.4%	-3.2	11.2%	26.5%	-0.9%
CC(C)N(Cc1nccn1C)C(=O)c1cc(COc2ccc(F)cc2Cl)on1	-1.9	26.4%	1.5%	-4.9	9.6%	8.5%	0.4%
CCCCc1ccc(NC(=S)NCc2cccs2)cc1	4.3	-22.0%	nt	-0.7	24.1%	?	1.9%
O=C(c1cc(C(F)(F)F)cc(C(F)(F)F)c1)N1CCC2(CC1)CN(c1ccccc1)C2	-0.4	nt	1.3%	nt	11.5%	nt	nt
CCOc1ccc(C(=O)/C=C/c2cc(OC)c(OC)c(OC)c2)cc1	3.7	0.8%[15.4 µM]	-2.1%	-3.6	-21.8%	-25.1%	1.0%
CC(=O)Nc1ccc(NC(=O)C(C)OC(=O)CNS(=O)(=O)c2ccc(Br)cc2Cl)cc1 (stereo not drawn)	nt	0.0%[15.4 µM]	0.2%	-7.1	16.3%	-9.4%	0.6%
CCC(C)Nc1nc(-c2c[nH]c3ccccc23)cs1 (stereo not drawn)	?	0.3%[15.4 µM]	?	-4.3	?	-13.7%	nt
Cc1ccccc1Nc1nnc(SCc2cc(=O)n3ccsc3n2)s1	6.4	-4.2%	1.3%[38.3 µM]	1.7	?	-7.2%	-1.2%
CCNS(=O)(=O)c1ccc(C(=O)OCc2cc(=O)oc3cc(OC)ccc23)cc1	1.6	-8.8%[15.4 µM]	7.4%	0.6	1.8%	-1.2%	nt
COc1ccc(C(=O)CSc2n[nH]c(N)n2)cc1	1.7	-5.1%	-2.2%	-2.8	56.2µM*	-0.1%	0.9%
C#CCOCCOCCOCCNc1nc(N2CCN(C(=O)[C@H](CCCCN)n3cc(CN)nn3)CC2)nc(N2CCN(C(=O)[C@H](CCCCN)n3cc([C@@H](N)CC(N)=O)nn3)CC2)n1	nt	nt	0.1%	-2.8	nt	11.4%	0.6%
COc1ccc(S(=O)(=O)N2CCC(C(=O)NCc3ccccc3)CC2)cc1OC	-6.6	28.4%	0.1%	1.9	24.0%	4.8%	nt
Cc1ccc(CNC(=O)CCNC(=O)c2ccco2)cc1	1.5	7.0%	-0.7%	1.1	22.6%	?	1.5%
Cc1ccc(N(CC(=O)Nc2ccc(C)cc2C)S(=O)(=O)N2CCCC2)cc1	1.0	-23.9%	-4.5%[38.3 µM]	-1.9	-5.6%	-3.4%	-0.2%
COc1cccc(C(=O)COC(=O)c2cccs2)c1	nt	?	1.4%	-1.6	12.1%	-3.2%	2.0%
COc1cc2cc(C(=O)N3CCc4ccccc4C3)[nH]c2cc1OC	nt	-37.5%[inhibitor]	2.0%	-3.4	16.6%	8.2%	-27.3%
CCN(CC)c1nc(C=Cc2ccc(N(C)C)cc2)c2nccnc2n1	nt	6.5%	1.2%	-7.4	nt	nt	0.5%
CN(C)C(CNC(=O)CSC(=S)N1CCCC1)c1ccccc1 (stereo not drawn)	nt	-128.9%[inhibitor]	-0.1%	-1.2	nt	-11.0%	-0.7%
CC(C)C(O)(CC#CCN1CCCC1)c1ccccc1 (stereo not drawn)	0.8	3.1%	-0.1%	-1.8	-3.0%	3.3%	-3.1%
CC(OC(=O)CNS(=O)(=O)c1ccc2ccccc2c1)C(=O)N(C)c1ccccc1 (stereo not drawn)	0.0	2.2%	-0.1%	-0.8	1.9%	-19.6%	-3.0%
C=CCc1cccc(CNc2c(C)n(C)n(-c3ccccc3)c2=O)c1O	-4.2	4.8%	0.2%	-1.0	-17.3%	-23.0%	-3.3%
CC1=CC(C)(C)n2c(O)c(N=N)c3c(C)c(C)cc1c32	-1.4	-8.3%[15.4 µM]	4.1%	-1.3	-2.9%	-13.3%	nt
CC[C@]12c3[nH]c4ccccc4c3CCN1C(=O)C(CC(=O)NCc1ccco1)C[C@@H]2C(=O)N1CCN(C(=O)C2CC2)CC1 (stereo partly drawn)	nt	nt	0.2%	-2.3	nt	5.0%	-2.3%
Cc1ccc(C(=O)NNC(=O)c2ccc3ccccc3c2)cc1	nt	-5.3%[15.4 µM]	-0.7%	-1.0	nt	0.2%	-0.8%
Cc1ccc(CS(=O)Cc2ccc(C(=O)N3CCN(c4ccccn4)CC3)o2)cc1 (stereo not drawn)	nt	42.4%	0.6%	8.9	9.3%	-19.4%	-4.3%
Oc1cccc2ccc(N3CCOCC3)nc12	1.6	-15.5%	-0.5%	10.1	4.3%	-2.4%	4.0%
Cc1nc(N2CCOCC2)nc(OCCN(C)C)c1[N+](=O)[O-]	-2.5	-110.5%[inhibitor]	2.0%	-2.9	-3.9%	2.1%	-0.1%
CN(C)S(=O)(=O)N(CC(=O)N1CCN(c2ccccc2F)CC1)c1ccccc1	1.2	14.5%[15.4 µM]	0.1%	-3.6	-4.0%	-5.2%	nt
CC[C@]1(c2ccccc2OC)C(=O)N(C(=O)OC)N1C(=O)OC	-3.0	nt	-0.2%	0.5	11.0%	11.6%	-0.9%
O=C(Nc1cc(S(=O)(=O)Nc2ccc(Cl)cc2)ccc1O)c1ccc(F)cc1F	nt	6.8%	?	-0.3	nt	-24.0%	-3.6%
O=C(Nc1cccc(S(=O)(=O)NCc2ccco2)c1)c1ccc(Cl)cc1	nt	20.4%	7.7%	0.4	nt	-2.3%	nt
O=C(CCN1C(=O)c2cccc3cccc(c23)C1=O)Nc1ccccc1	-0.4	-39.8%[inhibitor]	-2.1%	1.5	24.0%	0.0%	-3.0%
COc1ccc(-c2csc(NC(=O)C3CC(=O)N(c4ccc5c(c4)OCCO5)C3)n2)cc1 (stereo not drawn)	6.7	-1.8%	4.8%	2.1	-8.8%	-10.8%	1.2%
O=C(Cn1c(=O)oc2cc(S(=O)(=O)NCc3ccccc3)ccc21)NCc1ccco1	-0.9	-1.4%	4.3%	-4.7	-11.4%	-6.9%	0.5%
O=C(CC1C(=O)NCCN1C(=S)Nc1ccccc1)Nc1ccc2c(c1)OCCO2 (stereo not drawn)	4.8	-9.7%	0.8%[38.3 µM]	-2.5	5.1%	-1.8%	1.3%
COc1ccc(CCNC(=O)CCNC(=O)c2ccco2)cc1OC	nt	13.0%	0.3%	-3.5	-7.5%	9.1%	-2.3%
Cc1ccc(C)c(-c2nnc(NC(=O)CS(=O)(=O)c3ccccc3)o2)c1	nt	?	-3.6%	-1.4	nt	-1.8%	1.5%
CCOc1ccc(/C=N/N2C(=O)C(CC(=O)Nc3ccc(F)cc3F)SC2=NC)cc1OC (stereo not drawn)	3.2	25.9%	11.3%	-8.8	?	1.2%	0.8%
O=C(NCC1CCCO1)C1CCN(C2CCN(C(=O)Cc3ccsc3)CC2)CC1 (stereo not drawn)	-4.3	-4.8%	-0.1%	-0.2	20.1%	9.9%	nt
O=C(NCc1ccco1)/C(=C/c1cccnc1)NC(=O)c1ccco1	2.7	-3.3%	5.0%[38.3 µM]	-0.1	11.2%	-2.1%	-0.4%
Cn1c(Oc2ccc(Cl)cc2)c(C=O)c2ccccc21	-0.4	9.4%	0.6%	-0.3	-5.9%	-3.6%	-10.3%
Cc1c(C(=O)Nc2cccnc2Cl)oc2ccccc12	-1.2	-11.4%[15.4 µM]	-0.9%	-2.5	13.2%	-13.5%	nt
CC(=O)Oc1ccccc1/C=C1\CCOC1=O	3.2	16.6%	nt	-2.2	26.3%	-0.2%	-0.2%
COc1ccc(C(C)=O)cc1COC(=O)CNC(=O)c1cc(C)cc(C)c1	3.2	8.2%	-0.4%	-0.6	-7.9%	-10.2%	-0.1%
O=C(N/N=C/c1cc2c(cc1Cl)OCO2)c1cc(-c2ccccc2)n[nH]1	nt	4.5%	5.4%	1.0	15.0%	?	92.1%
CC(NC(=O)CN1CCN(CC(=O)Nc2ccccc2Cl)CC1)c1ccc(Br)cc1 (stereo not drawn)	nt	3.6%	1.4%	1.3	nt	-23.3%	0.3%
Cc1c(NC(=O)CN2C(=O)C(=O)N(Cc3ccccc3)C2=O)c(=O)n(-c2ccccc2)n1C	2.7	1.6%	0.7%	-3.0	5.8%	3.3%	-0.3%
Cc1ccc(-c2nc3ncccc3o2)cc1NC(=O)c1ccccc1	2.3	-9.3%	3.3%	3.7	?	-2.1%	nt
Cc1c([N+](=O)[O-])c2ccc(O)cc2n1-c1ccccc1	4.0	-3.4%	6.1%	-1.9	5.0%	-12.7%	3.5%
CC(=N\O)/C(CN(C)C)=N/O	3.1	-23.2%	0.7%	-3.2	-23.1%	5.0%	-0.6%
CCc1c(O)nc(N2CCN(Cc3ccccc3)CC2)[nH]c1=O	0.7	-52.6%[inhibitor]	-0.9%	-3.2	1.7%	3.6%	0.2%
CC(C)Nc1nc(Oc2ccc(=O)n(-c3ccccc3)n2)nc(N(C)C)n1	2.9	-5.9%[15.4 µM]	-1.1%	-3.8	8.2%	1.0%	nt
COc1cc(C(=O)NC(c2ccccc2)c2ccccc2)cc(OC)c1C	-3.1	-2.2%[15.4 µM]	9.6%	-1.5	-3.8%	13.5%	nt
CC(=O)Nc1cccc(-c2ccnc3c2CC(C)(C(=O)Nc2cccc(C(F)(F)F)c2)O3)c1 (stereo not drawn)	nt	nt	15.4%	-1.1	nt	nt	-4.6%
CSc1nnc(-c2cc(C)on2)n1-c1ccccc1	3.1	-28.2%	0.8%	-2.6	1.7%	8.8%	1.1%
Cn1c(SCC(=O)Nc2ccccc2Oc2ccccc2)nnc1C1CC1	nt	-55.0%[inhibitor]	-1.2%	-8.3	nt	3.9%	-0.3%
COCCCN1C(=O)c2ccccc2C1C(=O)NC1CCCCCC1 (stereo not drawn)	-1.3	-14.2%	6.9%[38.3 µM]	1.0	12.9%	8.7%	1.2%
